High-throughput results deposited in PubChem by Broad Institute.
MLL AF4-AF9 inh = blocks AF4 peptide binding to human AF9; P42568; AlphaScreen, biotin-AF4 peptide binding to FLAG-AF9; inhibition, % at 10 µM; hit rate 0.47% among 350,000; AID 651704;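 active means every replicate reaching a set inhibition limit, whatever the replicate mean, cut at about 25% in these data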;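 further: 0% = plate neutral control median and 100% = total signal loss; the record names both 10 and 1 µM as test concentration; the first replicate is given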
Target sequence (P42568 whole entry, looked up): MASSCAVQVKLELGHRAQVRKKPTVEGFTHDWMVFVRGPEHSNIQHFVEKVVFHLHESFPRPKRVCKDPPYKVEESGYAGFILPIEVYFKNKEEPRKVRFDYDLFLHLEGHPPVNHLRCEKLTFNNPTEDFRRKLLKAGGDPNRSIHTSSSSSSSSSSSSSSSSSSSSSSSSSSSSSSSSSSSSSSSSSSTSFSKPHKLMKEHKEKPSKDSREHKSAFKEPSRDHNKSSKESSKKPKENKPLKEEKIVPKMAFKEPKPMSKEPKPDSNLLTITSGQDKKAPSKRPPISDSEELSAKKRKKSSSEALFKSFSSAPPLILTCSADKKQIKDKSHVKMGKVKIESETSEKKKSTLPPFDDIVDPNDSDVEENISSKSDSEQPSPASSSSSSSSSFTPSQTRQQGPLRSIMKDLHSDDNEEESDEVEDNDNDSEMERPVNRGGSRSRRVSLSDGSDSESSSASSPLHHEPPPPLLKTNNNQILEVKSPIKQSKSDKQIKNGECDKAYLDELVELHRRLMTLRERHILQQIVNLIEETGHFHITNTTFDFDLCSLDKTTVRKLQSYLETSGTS
Ecoli rRNA inh = inhibitors of bacterial rRNA selective over humanized ribosomes | E. coli WT GFP vs humanized-ribosome RFP mutants, fluorescence, 24 h; active compounds read low; DMSO median 0, no signal -100 | GFP signal change (wild-type ribosome), % (no concentration beside the values) | hit rate 1.6% among 350,000 | AID 720706;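 active means significant combined selectivity score with lowered wild-type GFP, culture density cut under 30%, mutant RFP and density less affected; inactive means any of these conditions unmet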; further: one replicate is shown; some compounds called inactive have numbers as strong as hits
FGF22 binding = FGF22 (human) thermal shift binding. Q9HCT0. recombinant FGF22 thermal shift, SYPRO orange fluorescence; percent of sucrose octasulfate shift, DMSO zero. calls only at 9.99 µM. hit rate 1.5% among 340,000;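 active means melting point raised past a set limit in the mean and every replicate; three in four hits are not shown here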
Target sequence (Q9HCT0 whole entry, looked up): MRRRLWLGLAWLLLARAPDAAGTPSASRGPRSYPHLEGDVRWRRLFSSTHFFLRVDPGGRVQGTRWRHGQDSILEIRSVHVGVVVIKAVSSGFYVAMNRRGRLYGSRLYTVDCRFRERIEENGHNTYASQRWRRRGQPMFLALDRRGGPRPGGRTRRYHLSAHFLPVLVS
Ecoli rRNA inh OD600 = also measured in Ecoli rRNA inh; calls as there; OD600 change, %; measured here: OD600 growth;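 optical density of the mix in the first replicate; 0 = DMSO median and -100 = no signal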
Ecoli rRNA inh RFP = second read-out of Ecoli rRNA inh, no call of its own (marks repeat the call); RFP signal change, %; measured here: RFP humanized mutant strains;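 first replicate; 0 = DMSO median and -100 = no signal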
* hit, by the source's call; i = inactive; . = no result given; + = active, no number; & = joins results of further samples. An excerpt. The share of hits here may be higher or lower than overall.

nr	Molecule	MLL AF4-AF9 inh	Ecoli rRNA inh	Ecoli rRNA inh OD600	Ecoli rRNA inh RFP	FGF22 binding
1	OC[C@@H]1CN(Cc2ccc(Cl)cc2)C[C@H](n2cnc3c(NCc4ccc(F)cc4)ncnc32)O1	0.0	-2	-38	14	i
2	C[C@H](CO)N1C[C@H](C)[C@@H](CN(C)S(=O)(=O)c2cn(C)cn2)Oc2cc(C3=CCCC3)ccc2S1(=O)=O	-3.8	-1	0	0.0	i
3	CCCCN(C(=O)C1CC(=O)N(CCc2ccc(OC)c(OC)c2)C1)c1c(N)n(CC(C)C)c(=O)[nH]c1=O (configuration not stated)	-0.3	2	13	-3.9	i
4	Cc1[nH]c2ccccc2c1C(=O)c1c(N)[nH]c(C(=O)c2ccccc2)c1-c1ccc(Cl)cc1	2.0	-2	-11	-5.4	.
5	O=C(CSc1ccc(Br)cc1)Nc1cccc(S(=O)(=O)N2CCOCC2)c1	-4.6	-7	-24	2.4	i
6	CN1C(=O)c2cc(NC(=O)c3cccc(C(F)(F)F)c3)ccc2OC[C@H]2O[C@@H](CC(=O)O)CC[C@H]21	-1.5	-2	-4	-1.1	i
7	COCCNc1nc(Oc2ccc(NC(C)=O)cc2)c2sc(-c3ccccc3)cc2n1	3.3	15	15	-0.6	i
8	C[C@@H]1CCCCO[C@@H](CN(C)S(=O)(=O)c2ccc(Cl)cc2)[C@@H](C)CN([C@H](C)CO)C(=O)c2cc(N(C)C)ccc2O1	0.5&12&1.6	-1&-3	6&6	0.2&-0.7	i

Arranged by value in Ecoli rRNA inh RFP (highest first): 3 of the compounds above
nr	Molecule	MLL AF4-AF9 inh	Ecoli rRNA inh	Ecoli rRNA inh OD600	Ecoli rRNA inh RFP	FGF22 binding
7	COCCNc1nc(Oc2ccc(NC(C)=O)cc2)c2sc(-c3ccccc3)cc2n1	3.3	15	15	-0.6	i
6	CN1C(=O)c2cc(NC(=O)c3cccc(C(F)(F)F)c3)ccc2OC[C@H]2O[C@@H](CC(=O)O)CC[C@H]21	-1.5	-2	-4	-1.1	i
3	CCCCN(C(=O)C1CC(=O)N(CCc2ccc(OC)c(OC)c2)C1)c1c(N)n(CC(C)C)c(=O)[nH]c1=O (configuration not stated)	-0.3	2	13	-3.9	i

The listing continues.
nr	Molecule	MLL AF4-AF9 inh	Ecoli rRNA inh	Ecoli rRNA inh OD600	Ecoli rRNA inh RFP	FGF22 binding
9	COc1ccc(C(C)=O)c(OCC(=O)NCCC2=CCCCC2)c1	-4.7	-11	-12	0.2	i
10	O=C(O)C[C@H]1C[C@@H]2c3cc(NC(=O)CC4CC4)ccc3O[C@@H]2[C@@H](CO)O1	-0.9	1	8	-2.8	i
11	O=C(C[C@H]1CC[C@H](NC(=O)Nc2cc(F)ccc2F)[C@@H](CO)O1)Nc1ccccc1	2.4	1	-2	-0.1	i
12	CCCc1c(-c2ccc(Cl)cc2)ncn1CCc1ccccc1OC	4.8	-62	-77	-20	i
13	C[C@@H]1CN([C@@H](C)CO)C(=O)c2cc(NS(=O)(=O)c3cn(C)cn3)ccc2O[C@H]1CN(C)Cc1ccc(Cl)c(Cl)c1	-2.7	-6	-3	-0.3	i
14	COCC(=O)Nc1ccc2c(c1)OC[C@@H](C)N(Cc1ccncc1)C[C@H](C)[C@@H](OC)CN(C)C2=O	-2.1	0	-2	-4.0	i
15	C[C@H](CO)N1C[C@H](C)[C@@H](CN(C)C(=O)Nc2cccc3ccccc23)Oc2c(NC(=O)C3CCCCC3)cccc2C1=O	-0.6	6	0	0.4	i
16	C[C@H]1CCCCO[C@@H](CN(C)CC2CC2)[C@@H](C)CN([C@@H](C)CO)C(=O)c2cc(NS(=O)(=O)c3ccccc3)ccc2O1	1.7&-2.2&8.0	3&10	-2&9	-0.8&2.2	i
17	Cc1cc(C)n(-c2ccc(C(=O)N3CCN(S(=O)(=O)c4ccc(Br)cc4Cl)CC3)cc2)n1	2.2	-1	-11	0.7	i
18	COc1ccc(S(=O)(=O)N2C[C@H](O)COC[C@H]3O[C@H](CC(=O)N(C)C)CC[C@@H]32)cc1	-1.7	6	7	1.2	i
19	O=c1c([N+](=O)[O-])cn(Cc2ccccc2)c(=O)n1Cc1ccccc1	1.3	-44	-70	-19	i
20	CCN(C[C@@H]1[C@@H](c2ccccc2)[C@H](CO)N1C(C)=O)C(=O)NC1CCCC1	-1.9	-1	7	0.4	i
21	Cc1ccccc1S(=O)(=O)NCC[C@@H]1CC[C@@H](NC(=O)C2CCC2)[C@H](CO)O1	-4.9	1	4	-2.5	i
22	COc1ccc(CNC(=O)C2Cc3c(-c4ccccc4Oc4ccccc4)ccnc3O2)cc1OC (configuration not stated)	0.4	-11	-23	4.4	i
23	C[C@@H]1CN([C@H](C)CO)C(=O)c2cc(NS(=O)(=O)c3ccc(Cl)cc3)ccc2O[C@@H](C)CCCCO[C@@H]1CN(C)C(=O)C1CCCCC1	2.8	0	-4	1.7	i
24	COc1ccccc1NC(=O)N[C@@H]1CC[C@@H](CCNS(=O)(=O)c2ccccc2)O[C@H]1CO	1.0	-2	0	-3.3	i
25	CN1C(=O)c2cc(NS(=O)(=O)c3ccc(F)cc3)ccc2OC[C@@H]2O[C@@H](CC(=O)O)CC[C@@H]21	-1.8	5	5	3.0	i
26	CCCNC(=O)N1[C@@H](C#N)[C@@H](c2ccc(-c3cccnc3)cc2)[C@@H]1CO	-1.9	3	-5	-2.0	i
27	CCCCn1nnnc1C(CCSC)N1CCN(C/C=C/c2ccccc2)CC1 (configuration not stated)	2.3	-35	-39	5.0	i
28	CC(C)NC(=O)Nc1ccc2c(c1)C(=O)N([C@H](C)CO)C[C@H](C)[C@H](CN(C)S(=O)(=O)c1ccc(F)cc1)OCCCC[C@H](C)O2	-1.8	-2	-2	1.2	i
29	C[C@@H]1CN([C@H](C)CO)S(=O)(=O)c2ccc(Br)cc2O[C@@H]1CN(C)Cc1cccnc1	1.0	-5	0	-0.6	i
30	CNC(=O)C[C@H]1CC[C@H]2[C@@H](COC[C@H](O)CN2Cc2ccc(C(F)(F)F)cc2)O1	-3.9	0	-10	-0.9	i
31	C[C@H](CO)N1C[C@H](C)[C@H](CN(C)C(=O)CCCN(C)C)OCCCC[C@H](C)Oc2ccc(NC(=O)Cc3ccccc3)cc2C1=O	-3.5	2	9	-2.3	i
32	COc1ccc(C#Cc2cnc3c(c2)C(=O)N([C@@H](C)CO)C[C@@H](C)[C@@H](CN(C)C)O3)cc1	3.3	4	4	0.7	i
33	COC(=O)C[C@H]1C[C@H]2c3cc(NS(=O)(=O)c4ccc(OC)cc4)ccc3O[C@H]2[C@H](CO)O1	-0.3&-1.7	-13&-1	-18&-20	6.7&20	i
34	COCC(=O)N(C)C[C@@H]1Oc2cc(-c3ccncc3)ccc2S(=O)(=O)N([C@H](C)CO)C[C@@H]1C	-5.8	6	7	-3.6	i
35	C[C@@H]1CN([C@H](C)CO)C(=O)c2cccc(NC(=O)Nc3ccc(F)cc3)c2O[C@H]1CN(C)S(=O)(=O)c1ccc(F)cc1	-0.2	0	-4	-0.4	i
36	CN1CCN(C(=O)[C@@H]2[C@@H](CO)[C@@H]3Cn4c(cccc4=O)[C@H]2N3Cc2ccncc2)CC1	-2.6	1	10	-1.0	i
37	N#C[C@@H]1[C@H](c2ccccc2C2=CCCC2)[C@@H](CO)N1C(=O)Cc1ccncc1	-0.4	0	0	0.2	i
38	Cc1ccc(S(=O)(=O)Nc2ccc3c(c2)CC(=O)N([C@@H](C)CO)C[C@H](C)[C@H](CN(C)Cc2ccncc2)O3)cc1	0.9	0	-1	-1.4	i
39	COc1ccc(NC(=O)Nc2ccc3c(c2)C(=O)N([C@H](C)CO)C[C@@H](C)[C@H](CN(C)C(=O)NC2CCCCC2)OCCCC[C@H](C)O3)cc1	2.2	0	-1	0.4	+
40	O=C(C[C@H]1CC[C@H]2[C@@H](COC[C@H](O)CN2C(=O)Nc2ccccc2)O1)NC1Cc2ccccc2C1	0.5	-8	-1	1.8	i
41	O=C1C=CC(=NN=C(c2ccccc2)c2ccccc2)C=C1	-7.4	-7	4	-1.1	i
42	CO[C@H]1CN(C)C(=O)c2cccc(C#N)c2OCC[C@H]2CC[C@@H](OC)[C@H](CN(C)C(=O)[C@H]1C)O2	8.9	-1	2	-1.7	i
43	CO[C@H](CN(C)Cc1cc(F)ccc1F)[C@H](C)CN([C@H](C)CO)S(=O)(=O)c1ccc(Cl)cc1	2.6	-6	-53	31	i
44	CO[C@H]1CN(C)C(=O)c2cc(NC(=O)c3cc(C)on3)ccc2OC[C@H](C)N(C)C[C@H]1C	-3.2	-1	-3	0.3	i
45	COC(=O)[C@@]12C[C@@H](CC(=O)N3CCN(C(=O)C4CC4)CC3)C(=O)N(Cc3ccco3)C1=CCC(C)(C)C2	-2.4	3	7	3.1	i
46	COCC(=O)N1C[C@H](C)[C@@H](OC)CN(C)C(=O)c2ccc(NC(=O)c3ccc(F)cc3)cc2OC[C@@H]1C	0.4	2	5	0.2	i
47	COc1cccc(NC(=O)N[C@H]2CC[C@@H](CC(=O)N3CCOCC3)O[C@@H]2CO)c1	0.2	6	6	-1.9	i
48	C[C@H]1CN([C@@H](C)CO)C(=O)Cc2cc(NS(C)(=O)=O)ccc2O[C@H]1CN(C)C(=O)Nc1cccc2ccccc12	-2.1	1	8	2.9	i

A stretch from further up, for reference:
nr	Molecule	MLL AF4-AF9 inh	Ecoli rRNA inh	Ecoli rRNA inh OD600	Ecoli rRNA inh RFP	FGF22 binding
46	COCC(=O)N1C[C@H](C)[C@@H](OC)CN(C)C(=O)c2ccc(NC(=O)c3ccc(F)cc3)cc2OC[C@@H]1C	0.4	2	5	0.2	i
47	COc1cccc(NC(=O)N[C@H]2CC[C@@H](CC(=O)N3CCOCC3)O[C@@H]2CO)c1	0.2	6	6	-1.9	i
48	C[C@H]1CN([C@@H](C)CO)C(=O)Cc2cc(NS(C)(=O)=O)ccc2O[C@H]1CN(C)C(=O)Nc1cccc2ccccc12	-2.1	1	8	2.9	i

Next entries.
nr	Molecule	MLL AF4-AF9 inh	Ecoli rRNA inh	Ecoli rRNA inh OD600	Ecoli rRNA inh RFP	FGF22 binding
49	CNC(=O)C[C@@H]1CC[C@H]2[C@@H](COc3ccc(NC(=O)c4cc(F)cc(F)c4)cc3C(=O)N2C)O1	-1.5	2	-2	-0.5	i
50	COc1ccc(NC(=O)Nc2ccc3c(c2)C(=O)N([C@@H](C)CO)C[C@@H](C)[C@H](CN(C)S(=O)(=O)c2ccc(Cl)cc2)O3)cc1	4.3	-5	-11	-1.1	i
51	CCC(=O)Nc1ccc2c(c1)C(=O)N(C)C[C@@H](OC)[C@@H](C)CN(C(=O)c1ccncc1)[C@@H](C)CO2	1.1	1	1	-1.2	i
52	C[C@@H]1CN([C@H](C)CO)C(=O)CCCn2nncc2CO[C@@H]1CN(C)C(=O)Nc1ccc2c(c1)OCCO2	-0.4	3	5	0.5	i
53	Cc1noc(C)c1S(=O)(=O)Nc1ccc2c(c1)C(=O)N([C@H](C)CO)C[C@@H](C)[C@@H](CN(C)Cc1ccc(C(=O)O)cc1)OCCCC[C@@H](C)O2	-10	1	7	-0.9	i
54	C[C@H]1CN([C@@H](C)CO)C(=O)c2cccc(NS(=O)(=O)c3ccccc3)c2O[C@H]1CN(C)C(=O)Nc1ccc(C(F)(F)F)cc1	0.1	-4	-5	0.8	i
55	CN(C)CCCNC(=O)C[C@@H]1CC[C@@H]2[C@H](COC[C@@H](O)CN2S(=O)(=O)c2ccc(F)cc2)O1	-0.2	3	21	2.6	i
56	CCNC(=O)[C@H]1[C@H](CO)[C@H]2Cn3c(ccc(-c4cccc(F)c4)c3=O)[C@@H]1N2C(=O)c1ccccn1	-2.5	0	2	1.0	i
57	C[C@H]1CN([C@@H](C)CO)C(=O)c2cccc(NC(=O)c3ccc(-c4nccs4)cc3)c2O[C@@H]1CN(C)Cc1ccc2c(c1)OCO2	-7.0	-4	6	3.3	i
58	Cc1cc(=O)[nH]c2ccc(Cc3ccccc3)cc12	-1.6	9	-9	0.6	i
59	CCCn1c(SCC(=O)c2cc(C)n(-c3cc(C)on3)c2C)n[nH]c1=O	2.4	-7	-6	-0.6	i
60	COc1cccc(S(=O)(=O)N(C)C[C@@H]2OCc3cn(nn3)CCCC(=O)N([C@H](C)CO)C[C@H]2C)c1	-2.5&0.5	1&1	-4&-5	-4.3&-1.6	i
61	C[C@@H]1CCCCO[C@H](CN(C)C)[C@@H](C)CN([C@H](C)CO)C(=O)c2cc(N(C)C)ccc2O1	2.8	2	5	-1.1	i
62	C[C@@H]1CN([C@@H](C)CO)C(=O)c2cc(NS(=O)(=O)c3ccc(F)cc3)ccc2O[C@@H]1CN(C)CC1CC1	2.3	7	6	0.0	i
63	COCCN(C(=O)c1cc(Cl)ccn1)c1c(N)n(Cc2ccccc2)c(=O)[nH]c1=O	-26	1	9	1.1	i
64	O=C1NCCNC1c1ccccc1 (configuration not stated)	0.8	7	8	1.2	i
65	O=C(NC1CCCC1)N1CCCCN2[C@H](C1)[C@@H](c1ccc(-c3cccnc3)cc1)[C@@H]2CO	-1.8	-4	-8	-3.7	i
66	CCCN1C[C@H](C)[C@H](OC)CN(C)C(=O)c2cc(NC(=O)c3ccc(F)cc3)ccc2OC[C@@H]1C	-1.3	4	3	-1.4	i
67	CN(C)C(=O)C[C@H]1CC[C@@H](NC(=O)Nc2cccc(F)c2)[C@H](CO)O1	-1.5	3	10	-0.9	i
